Screening data as filed in PubChem BioAssay.
CBX7 inh = CBX7 chromodomain binding inhibitors, primary screen, biochemical, AlphaScreen; 1.1% of 66,000 active; AlphaScreen His6-CBX7 / biotin-H3K27me3 peptide binding; stronger effect = lower value; normalised signal (fraction of DMSO) (test concentration not listed); AID 1224903, 2016; in the data active means normalised signal below about 0.5;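 further: 100 nL library stock added to about 20 µL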
Target sequence (O95931 whole entry, looked up): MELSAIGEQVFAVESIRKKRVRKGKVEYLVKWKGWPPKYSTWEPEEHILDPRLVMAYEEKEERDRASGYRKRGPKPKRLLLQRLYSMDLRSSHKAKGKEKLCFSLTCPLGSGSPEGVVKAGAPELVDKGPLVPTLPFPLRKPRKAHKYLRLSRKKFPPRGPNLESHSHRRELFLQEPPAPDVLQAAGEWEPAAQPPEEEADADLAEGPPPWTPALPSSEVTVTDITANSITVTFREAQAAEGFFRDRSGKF
CBX7 inh z-score = second read-out of CBX7 inh, no call of its own (marks repeat the call); z-score; measured here: z-score of CBX7 signal; some inactives read as strong as hits; reference of the scale not given here;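 same signal on another scale; lower means less binding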
Starred values were filed as active, the others as inactive; & = joins results of further samples.

Every second line gives: CBX7 inh, CBX7 inh z-score
> CC(C)Oc1ccc(CNC(=O)C2CCN(C(=O)c3sccc3-n3cccc3)CC2)cc1
  0.96, -1.8
> COc1ccc(S(=O)(=O)Nc2ccc3[nH]c(=O)[nH]c3c2)cc1
  1.1, 2.1
> Cc1cccc(NC(=O)COc2cccc(C)c2C)c1C
  1.1, 0.82
> O=C1CC(N2CCN(c3ccccc3)CC2)C(=O)N1c1ccc(Cl)cc1Cl (configuration not stated)
  1.2, 1.6
> Cc1cccc(OCc2nc(C#N)c(N3CCC(C(N)=O)CC3)o2)c1
  0.88, -2.2
> CCn1cc(C(=O)NCCN(C)C)c(=O)c2ccc(C)nc21
  1, 0.28
> O=C(NCCCN1CCOCC1)c1cc(-c2ccc3c(c2)OCO3)nc2ccccc12
  1, 0.25
> COc1ccc(-n2c3c(cc(C(=O)Nc4ccc(F)cc4)c2=O)C(=O)CC(C)(C)C3)cc1
  0.92, -0.29
> COc1ccc(-c2noc(CCC(=O)N(C)c3ccc(Br)cc3)n2)cc1
  0.86, -2
> COc1ccccc1CNC(=O)c1sc2ncn(CC(=O)N3CC(C)CC(C)C3)c(=O)c2c1C (configuration not stated)
  0.98, -0.44
> COCCN1Cc2cccc(C(=O)Nc3cccc(Cl)c3)c2C1=O
  1, 0.24
> CC1=Nc2cc(C(=O)N3CCN(c4cccc(C)c4)C(C)C3)ccc2Sc2ccc(Cl)cc21 (configuration not stated)
  0.69, -5
> CCOC(=O)CNC(=O)c1cn(C)c(=O)c2cc(OC)c(OC)cc12
  1, 0.99
> CC(=O)n1cc(/C=C/c2ccc3cccc(OCc4ccccc4Cl)c3n2)c2ccccc21
  1.2, 2.5
> COc1ccc(-c2cc(CCCC(=O)NCc3cccc(OC)c3)no2)cc1
  0.97, -1.2
> CCOc1ccc(-c2cc3cc(OC)c(OC)cc3c(CC)n2)cc1
  1.1, 1.4
> CCCC(=O)N1c2ccccc2NC2=C(C(=O)CCC2)C1c1ccccc1Cl (configuration not stated)
  0.81, -2.2
> Cc1cc(N2CCC(C(=O)N3CC(C)CC(C)C3)CC2)n2nc(C)c(-c3ccc(Cl)cc3)c2n1 (configuration not stated)
  1.1, 0.29
> Cc1c(C(=O)NCc2ccccc2)oc2ccc(S(=O)(=O)N3CCOCC3)cc12
  1, 0.073
> CC1CCN(c2c(NCc3ccc(C(=O)NCc4ccc(Cl)cc4)cc3)c(=O)c2=O)CC1
  1.1, 1.8
> CCc1ccc(N2CC(C(=O)Nc3ccc(NC(C)=O)cc3)CC2=O)cc1 (configuration not stated)
  1, 0.3
> COc1ccccc1Nc1cc(C(=O)NCCCN(C)C2CCCCC2)c2ccccc2n1
  1.2, 0.16
> CCCc1cc(C(=O)NC(C)c2ccccc2)no1 (configuration not stated)
  0.99, -0.41
> COc1cccc(NS(=O)(=O)c2ccc3[nH]cc(C(=O)NCCC(C)C)c(=O)c3c2)c1
  1.1, 0.49
> O=C(NCCN=C1NS(=O)(=O)c2ccccc21)c1cccc2ccccc12
  0.98, -0.4
> CC(C)CSc1oc(-c2ccccc2)nc1S(=O)(=O)c1ccc(F)cc1
  1.2, 5.2
> Cc1nc2ccc(S(=O)(=O)NC(C(=O)Nc3nc4ccc(Cl)cc4s3)C(C)C)cc2s1 (configuration not stated)
  1.3, 4.8
> Cc1cc(N2CCN(C3CCCCC3)CC2)nc2cccc(O)c12
  0.88, -4.8
> O=C1c2ccccc2C(=O)N1c1c[nH]c(=O)[nH]c1=O
  1.1, 2.2
> Cc1ccccc1CN1C(=O)CSc2ccc(C(=O)NCc3ccc(F)cc3)cc21
  1.1, 0.85
> O=C(NCc1ccccn1)C1CCN(C(=O)c2cnn(-c3ccccc3)c2-n2cccc2)CC1
  1, -0.18
> O=C1CN(S(=O)(=O)c2ccc3c(c2)CCN3C(=O)C2CCC2)CC(=O)N1CCc1ccccc1
  0.99, -0.35
> O=C(Nc1ccc(-c2noc(-c3cccs3)n2)cc1)c1cccnc1
  0.99, -0.13
> O=C(NC1CCCCCC1)C1CCN(S(=O)(=O)c2cccc3cccnc23)CC1
  1, 0.11
> CC(C)c1ccc(OCc2nc(-c3ccccn3)no2)c(Br)c1
  0.91, -1.1
> COCCCNC(=O)c1cn(-c2ccc(Cl)cc2)c(=O)c2ccccc12
  0.98, -0.71
> Cc1c(-c2cccc(Cl)c2)nc2ccccc2c1C(=O)NCCCN1CCOCC1
  1, 0.43
> Cc1ccc2nc(Nc3nc(C)cc(=O)[nH]3)nc(C)c2c1
  0.95, -1.4
> Cc1cccc(C(=O)Nc2cccc(-c3nc4ncccc4o3)c2C)c1
  0.95, -0.59
> COc1cc(C(=O)Nc2ccc3nc(N4CCC(C)CC4)cc(C)c3c2)ccc1Br
  0.91, -1.5

Part of the list above in another layout:
Structure: O=C(Nc1ccc(-c2noc(-c3cccs3)n2)cc1)c1cccnc1
  CBX7 inh: 0.99	CBX7 inh z-score: -0.13
Structure: O=C(NC1CCCCCC1)C1CCN(S(=O)(=O)c2cccc3cccnc23)CC1
  CBX7 inh: 1	CBX7 inh z-score: 0.11

Full records from above. Values in the order: CBX7 inh, CBX7 inh z-score
O=C(Nc1ccc(-c2noc(-c3cccs3)n2)cc1)c1cccnc1 is listed as 0.99, -0.13
CC(C)Oc1ccc(CNC(=O)C2CCN(C(=O)c3sccc3-n3cccc3)CC2)cc1 is listed as 0.96, -1.8

For convenience, 2 of the compounds above.
Every second line gives: CBX7 inh, CBX7 inh z-score
> CC(C)c1ccc(OCc2nc(-c3ccccn3)no2)c(Br)c1
  0.91, -1.1
> COCCCNC(=O)c1cn(-c2ccc(Cl)cc2)c(=O)c2ccccc12
  0.98, -0.71

Continued:
Every second line gives: CBX7 inh, CBX7 inh z-score
> c1ccc2c(c1)OCC(CNc1nnc(Cc3ccncc3)c3ccccc13)O2 (configuration not stated)
  0.98, -0.8
> Cc1c(C(=O)N2CCN(C)CC2)sc2ncn(CC(=O)N3CCC(C)CC3)c(=O)c12
  0.93, -0.7
> CCC(=O)Nc1ccc2oc(-c3ccccc3Br)nc2c1
  1, 0.0058
> CCN(CCNC(=O)c1c[nH]n2c(=O)c(Cc3ccccc3F)c(C)nc12)c1ccccc1
  0.97, -1.1
> CCOc1ccc(CCNC(=O)Cn2nc(-c3ccc(Cl)cc3)ccc2=O)cc1OCC
  0.98, -1.1
> COc1ccc(-c2csc(-c3cccnc3)n2)cc1F
  1.1, 1
> COCCNC(=O)C1CCCN(c2nn3c(=O)cc(C)nc3s2)C1 (configuration not stated)
  1.1, 1.3
> Cc1nc(NC(=O)c2ccccc2)sc1-c1csc(Nc2ccc(O)cc2)n1
  0.74, -0.31
> Cc1cc(C)cc(-n2nc3c(c2NC(=O)COc2ccc(Cl)cc2)CSC3)c1
  1, 0.024
> Cc1ccccc1-c1nc(CN2CCC(C(=O)NCCCSC3CCCCC3)CC2)c(C)o1
  0.81, -2.9
> Cc1ccc2cc(CCNC(=O)C3CC3)c(=O)[nH]c2c1C
  1.2, 1.2
> CCOc1ccccc1CNC(=O)C1CCN(S(C)(=O)=O)CC1
  1, 0.085
> COc1ccccc1CNC(=O)c1ccc2c(c1)ncn2-c1ccc(C)c(Cl)c1
  0.86, -6.3
> CCOc1ccc(CN2C(=O)c3ccccc3C2C(=O)NC2CCC(C)CC2)cc1OC (configuration not stated)
  0.94, -0.2
> COc1ccc(NC(=O)C2CCCN(S(=O)(=O)c3c(C)noc3C)C2)cc1 (configuration not stated)
  1, 0.11
> Cc1ccc2c(c1)c(=O)c(S(=O)(=O)c1ccccc1)cn2CC(=O)Nc1ccc2c(c1)OCCO2
  0.89, -1.6
> Cc1cccc(OCC(=O)Nc2ncc(Cc3ccc(Br)cc3)s2)c1
  1, 0.15
> O=C(C1CCN(c2ccc(N3CCOCC3)nn2)CC1)N1CCN(c2ccccc2)CC1
  1, 0.48
> CCn1ccnc1C(O)c1cc(OC)ccc1OC (configuration not stated)
  0.99&0.96, -0.41&-0.98
> COc1ccccc1-c1c(C)nn2c(N3CCN(c4ccccn4)CC3)cc(C)nc12
  0.97, -0.2

(more compounds)
SMILES,CBX7 inh,CBX7 inh z-score
Cc1ccc2nc(SCC(=O)NCc3ccccc3)[nH]c2c1,1.1,0.9
COc1cc(OC)cc(-c2nc3nc(C)c(CCC(=O)NC(C)c4ccccc4)c(C)n3n2)c1 (configuration not stated),0.93,-0.29
CCOc1ccc(NC(=O)CC2C(=O)N(c3ccccc3)C(=O)N2CCc2cccs2)cc1 (configuration not stated),1,0.84
CCN(CC)CC(O)Cn1c(C)c(C)c2ccccc21 (configuration not stated),0.97,-1.4
CCCCn1c(C(C)NC(=O)Cc2ccccc2)nc2ccccc21 (configuration not stated),1,-0.02
Cc1csc2ncc(C(=O)N(C)c3ccccc3)c(=O)n12,1,0.62
Cc1cc(Nc2ccc(Cl)c(C(=O)O)c2)n2ncnc2n1,1.1,1.9
Cc1c(CNC2CCC(C)CC2)c(C(=O)O)c(C)n1Cc1ccccc1 (configuration not stated),1,1
O=C(Nc1cc(C(F)(F)F)ccc1Cl)c1cc(-c2cccs2)on1,1,0.2
COc1cc2c(cc1OC)C1C(C(=O)NCCN3CCOCC3)c3ccccc3C(=O)N1CC2 (configuration not stated),1,0.71

Structural class, the entries above containing two or more sulfur atoms.
SMILES,CBX7 inh,CBX7 inh z-score
CC(C)CSc1oc(-c2ccccc2)nc1S(=O)(=O)c1ccc(F)cc1,1.2,5.2
Cc1nc2ccc(S(=O)(=O)NC(C(=O)Nc3nc4ccc(Cl)cc4s3)C(C)C)cc2s1 (configuration not stated),1.3,4.8
Cc1nc(NC(=O)c2ccccc2)sc1-c1csc(Nc2ccc(O)cc2)n1,0.74,-0.31

Continued:
SMILES,CBX7 inh,CBX7 inh z-score
CC(=O)N1CCc2cc(S(=O)(=O)NCCC(=O)Nc3cccc(Cl)c3)ccc21,0.86,-2.6
Clc1ccc(Nc2nc(-c3ccccc3)c3cc(Br)ccc3n2)cc1,1.7,14
COc1ccc(CNC(=O)c2c(-c3ccccc3)noc2C)cc1,0.94,-0.7
COc1ccc(C2(c3ccc(Cl)cc3)CCCCC2)cc1,1.2,5.4
CCCNC(=O)c1nc2ncc(Br)cn2n1,0.97,-0.51
O=C(CC1(O)C(=O)N(Cc2ccccc2Cl)c2ccccc21)c1ccc(F)cc1 (configuration not stated),0.98,-0.048
O=C(Nc1ccc(S(=O)(=O)Nc2ncccn2)cc1)c1ccccc1,0.99,-0.26
O=c1c(S(=O)(=O)c2ccccc2)cn(Cc2ccc(Cl)cc2)c2ccc(F)cc12,0.91,-1.7
COc1ccccc1-c1cc(C(F)(F)F)nc(NC2CCCC2)n1,1.1,4.1
Cc1ccc2nc(-c3ccc(N4C(=O)CC(N5CCC(N6CCCCC6)CC5)C4=O)cc3)sc2c1 (configuration not stated),1,0.44
O=C(NCC1CCCO1)c1nn2c(c1Cl)NC(c1cccs1)CC2C(F)(F)F (configuration not stated),1.1,1.7
O=C(Cc1c(C(=O)O)[nH]c2ccc(Cl)cc12)NCc1cccs1,1.1,2.2
COc1ccc(C)cc1-n1c(C)nc2cc(C(=O)O)ccc21,0.93,-0.71
COc1ccc(-c2nc3cc(Br)c(C)c(C)c3nc2-c2ccc(OC)cc2)cc1,1.7,4.5
Cc1nc2c(C(=O)N3CCOCC3)cnn2c(C)c1Cc1ccccc1Cl,1,0.73
COc1cc2c(cc1OC)C(C(=O)NCCCN1CCCCCC1)C(c1ccccc1F)N(C)C2=O (configuration not stated),1.2,3.4
COc1ccc(NS(=O)(=O)c2ccc3c(c2)NC(=O)CC(=O)N3)cc1,1,1.4
O=C(Nc1sc2c(c1C(=O)N1CCOCC1)CCCC2)c1ccccc1F,0.83,-1.8
COc1cc(Cl)c(C)cc1NC(=O)Cn1nc(Cc2cccnc2)c2ccccc2c1=O,0.68,-0.43
CCOC(=O)Cn1c(=O)n(Cc2ccccc2Cl)c(=O)c2cccnc21,1,0.61
COCCCNC(=O)c1ccc2c(c1)nc(C)n2-c1ccc(Br)cc1,1.1,1.8
CCCCSCCCNC(=O)c1cc(Nc2ccc(OC)c(OC)c2)nc2ccccc12,1.1,0.95
Cc1ccc2cc(CCNC(=O)C(C)(C)Oc3ccc(Cl)cc3)c(=O)[nH]c2c1C,0.99,-0.23
CCOc1cccc(C(=O)Nc2nnc(-c3cccc(OCC)c3)s2)c1,1.1,1.2
Cc1cccc(N(Cc2nnc3n2CCCCC3)C(=O)Nc2ccc(Cl)cc2)c1C,1,0.73
C=CCn1c(SCc2ccncc2)nc2cc(C(=O)N3CCOCC3)ccc2c1=O,1.1,1.5
COc1ccc(-n2ncc3c(NCCO)ncnc32)cc1,0.98,-0.38
CCN(CC)S(=O)(=O)c1ccc2c(c1)N(CC(=O)NCCOC)C(=O)CO2,1.1,1.6
O=c1[nH]cnc2nn(-c3ccc(OC(F)(F)F)cc3)nc12,1.1&0.96,1.8&-1.2
CCOc1ccc(-c2cc(C(=O)NCCCOC)c3ccccc3n2)cc1,0.98,-0.39
CCn1c(C(=O)NCCCN2CCCCC2C)cc2sc(Cl)cc21 (configuration not stated),0.98,-0.68
Cc1cc(Br)ccc1NC(=O)CNC(=O)Cn1ccc2ccccc2c1=O,1,-0.0056
CCOc1ccc(CCN2C(=O)c3ccccc3C2C(=O)NCCc2ccccc2)cc1OCC (configuration not stated),1.1,2.2
Cc1cccc(CN2C(=O)c3ccccc3Sc3ccc(C(=O)NC4CC4)cc32)c1,1,0.46
COc1ccc(CNC(=O)C2(S(=O)(=O)c3ccc(Cl)cc3)CC2)cc1,1.1,1.1
Clc1ccc(Cn2c(CNc3ccc(Cl)cc3)nc3ccccc32)cc1,0.97,-1.3
Cc1cc(C)nc(NS(=O)(=O)c2ccc(NC(=O)c3ccc(F)cc3)cc2)n1,1,0.52
CC1CCCN(C(=O)Cn2nnc(-c3ccccc3F)n2)C1 (configuration not stated),0.99,-0.091
Cc1ccc2oc(-c3cc(NC(=O)c4cccc(F)c4)ccc3Cl)nc2c1,0.89,-0.26
Cc1ccc(-c2csc(NC(=O)c3ccc(S(=O)(=O)N(C)c4ccccc4)cc3)n2)cc1C,0.86,-2.3

An excerpt, so the mix of outcomes need not match the whole.
